RGS16-Gao HTS = modulators of RGS16 binding to Galphao, primary screen, biochemical, human proteins, multiplexed bead flow cytometry. Regulator of G-protein signaling 16 (Homo sapiens) + Guanine nucleotide-binding protein …. bead-based flow cytometry RGS16-Galphao binding, fluorescence; actives lie on both sides. binding response (% of control), % at 10 µM. 220,000 compounds, 0.38% hits. AID 1441, 2008;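 active means below 25% or above 175%, edge rows of some plates excepted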;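 further: Galphao activated by GDP with aluminum fluoride before binding; 100% = wells without compound and 0% = beads without RGS; some results beyond the cut were filed as inactive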
Target sequence (O15492 whole entry, looked up): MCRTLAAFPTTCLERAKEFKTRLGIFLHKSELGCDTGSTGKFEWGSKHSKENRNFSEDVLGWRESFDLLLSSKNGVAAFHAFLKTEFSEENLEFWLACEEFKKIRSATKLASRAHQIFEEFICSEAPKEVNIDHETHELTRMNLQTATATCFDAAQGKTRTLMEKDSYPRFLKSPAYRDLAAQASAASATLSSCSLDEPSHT
Target sequence (P09471 whole entry, looked up): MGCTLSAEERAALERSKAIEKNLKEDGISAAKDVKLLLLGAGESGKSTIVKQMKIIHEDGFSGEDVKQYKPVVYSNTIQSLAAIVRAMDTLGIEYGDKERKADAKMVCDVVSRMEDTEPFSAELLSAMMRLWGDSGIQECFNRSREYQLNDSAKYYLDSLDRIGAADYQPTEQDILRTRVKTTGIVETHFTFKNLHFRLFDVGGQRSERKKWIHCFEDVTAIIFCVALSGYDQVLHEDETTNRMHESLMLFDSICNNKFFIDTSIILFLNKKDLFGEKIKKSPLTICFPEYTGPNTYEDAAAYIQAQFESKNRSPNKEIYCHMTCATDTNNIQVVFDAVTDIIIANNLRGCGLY
PKD1 kinase inh = inhibitors of human PKD1 kinase, biochemical, fluorescence polarization; PKD1 kinase fluorescence polarization assay; inhibition, %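 (about 10 µM by stock and volumes)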; 200,000 compounds, 0.056% hits; AID 797, 2007;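 active means inhibition of 50% or more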;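 further: controls were vehicle for no effect and a reference inhibitor for full effect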
INS promoter inh = inhibitors of insulin promoter-driven GFP, primary screen, imaging, TRM-6 cells (human fetal islet line), eGFP reporter, cell count. reporter expression induced with tamoxifen. 130,000 compounds, 0.9% hits. AID 1273, 2008. inhibition, % at 2 µM;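 active means inhibition above the mean plus 3 SD, with well images judged a real hit on visual review, cut at about 60% in these data, passing the limit was not always enough; inconclusive means inhibition over the cutoff but images rejected on review; inactive means inhibition not above the cutoff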
HSV replic up = enhancers of HSV replication in host cells, fold increase, host cell viability | HSV replication augmentation in cells | maximum fold increase | 220,000 compounds, 0.005% hits;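 active means peak rise of 1.5-fold or more in the series; inconclusive means self-fluorescent or not available for retest; tested in PC3 cells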;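 further: first round at 10 µM; read as green reporter fluorescence; hits show the peak of a series up to 25 µM; 1 = signal of infected wells without compound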
GALR2 agonist = GALR2 receptor agonists, primary screen, cell-based. Galanin receptor type 2 (Homo sapiens), O43603. GALR2-expressing cells, agonist activation read-out. activation, %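 (tested at 5 µM)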. 140,000 compounds, 0.48% hits. AID 803, 2007;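 active means above mean plus 3 SD of all compounds, about 5% in these data, not always enough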;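 further: 0% = vehicle buffer wells and 100% = reference agonist at full effect; tested in CHO reporter cells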
Target sequence (O43603 whole entry, looked up): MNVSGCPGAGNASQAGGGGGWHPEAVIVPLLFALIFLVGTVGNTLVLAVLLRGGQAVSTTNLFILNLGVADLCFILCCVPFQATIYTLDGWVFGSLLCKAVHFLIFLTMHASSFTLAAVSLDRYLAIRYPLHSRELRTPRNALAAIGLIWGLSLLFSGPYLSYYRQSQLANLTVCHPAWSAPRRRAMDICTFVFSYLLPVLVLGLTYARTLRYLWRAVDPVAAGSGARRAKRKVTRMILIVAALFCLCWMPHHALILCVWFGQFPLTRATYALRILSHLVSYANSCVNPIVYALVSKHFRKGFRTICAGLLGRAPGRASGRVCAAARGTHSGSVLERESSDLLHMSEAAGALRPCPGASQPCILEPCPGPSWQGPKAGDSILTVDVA
INS promoter inh cell count = second read-out of INS promoter inh, no call of its own (marks repeat the call); normalized cell count, %; measured here: cell count, toxicity; reference of the scale not given here;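 cells exposed to compound for 48 h; stained nuclei by imaging scaled within each plate; lower means fewer cells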
HSV replic up primary fold = also measured in HSV replic up; calls as there; fold increase; compound at 10 µM; measured here: primary screen fold increase 10 uM; tested in PC3 cells;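 GFP signal in the first replicate; 1 = infected wells without compound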
Numbers without * were called inactive; i = inactive; ? = inconclusive; · = not tested or not shown. No enrichment for hits. Share with any hit: about 1.3%.

Sample of the layout:
SMILES | RGS16-Gao HTS | PKD1 kinase inh | INS promoter inh | INS promoter inh cell count | HSV replic up | HSV replic up primary fold | GALR2 agonist
COC(=O)C1C(O)=C(C=NCC(C)N=CC2=C(O)C(C(=O)OC)C(C)(C)CC2=O)C(=O)CC1(C)C (stereo unspecified) | 105 | 5 | · | · | i | 1.1 | 0.2
COC(=O)C1=CN(C)C=C(C(=O)OC)C1c1ccsc1 | 110 | 12 | 23 | 99 | i | 1 | 6.7

The list itself (from the top)
SMILES | RGS16-Gao HTS | PKD1 kinase inh | INS promoter inh | INS promoter inh cell count | HSV replic up | HSV replic up primary fold | GALR2 agonist
COC(=O)C1C(O)=C(C=NCC(C)N=CC2=C(O)C(C(=O)OC)C(C)(C)CC2=O)C(=O)CC1(C)C (stereo unspecified) | 105 | 5 | · | · | i | 1.1 | 0.2
COC(=O)C1=CN(C)C=C(C(=O)OC)C1c1ccsc1 | 110 | 12 | 23 | 99 | i | 1 | 6.7
Cc1ccc(C(=O)NC(=S)Nc2ccccc2C(F)(F)F)cc1 | 100 | 8 | 10 | 95 | i | 0.93 | -0.5
O=C(c1ccc(Cl)cc1)N1CCN(c2ccnc3cc(Cl)ccc23)CC1 | 99 | 6 | -5 | 44 | i | 0.85 | ·
CCN(CC(=O)NCc1ccc(F)cc1)C(=O)C1CCN(C(=O)Nc2ccccc2)CC1 | 99 | 6 | 13 | 110 | i | 1.1 | -1.6
O=C(Nc1ccc(F)cc1)Nc1nnc(-c2ccncc2)s1 | 103 | -3 | · | · | i | 0.67 | -2.4
CCOC(=O)N1CCC(N2Cc3cccc(C(=O)NCc4ccccn4)c3C2=O)CC1 | 116 | 10 | · | · | i | 1 | -0.9
O=C(OCC(=O)c1c[nH]c2ccccc12)c1cc(Br)ccc1O | 100 | -8 | 3 | 104 | i | 0.82 | ·
Cc1ccc(C(=O)/C=C\C(=O)c2ccc(C)cc2)cc1 | 81 | -1 | 29 | 22 | i | 0.75 | -0.2
CC1CCCC/C1=N\NS(=O)(=O)c1ccc(Br)cc1 (stereo unspecified) | 99 | -4 | 25 | 60 | i | 1.1 | -3.6
COc1ccc(C(=O)N/N=C/c2ccc(OC(=O)c3cccs3)cc2)cc1 | 96 | -4 | · | · | i | 0.89 | -0.7
CC(CCc1ccccc1)NC(=O)c1cc2sccc2n1C (stereo unspecified) | 100 | -22 | · | · | i | 0.9 | -0.6
CCn1nc(-c2ccccc2)c2nc3ccccc3nc21 | 96 | -5 | · | · | ? | · | -0.8
O=S(=O)(c1ccc(NC(=S)N/N=C/c2ccc(Oc3ccccc3)cc2)cc1)N1CCOCC1 | 97 | -1 | · | · | i | 0.91 | ·
Cc1ccc(C2C(/C=C3/SC(=S)NC3=O)=C(c3cccs3)Oc3ccccc32)cc1 (stereo unspecified) | 122 | 1 | -21 | 109 | i | 1.2 | -2.0
COc1cc2[nH]c(=O)n(CCCCCC(=O)NCCc3c[nH]c4ccccc34)c(=O)c2cc1OC | 100 | -3 | 67* | 67* | i | 0.98 | -1.4
Nc1ccccc1-c1n[nH]c(=S)s1 | 102 | 1 | · | · | i | 0.98 | ·
COc1ccc(CCC(C(O)C(F)(F)F)S(=O)c2ccccc2)cc1 (stereo unspecified) | 98 | 1 | -76 | 156 | i | 1.1 | -1.4
CC1(C)CC(NC(=O)c2ccccn2)CC(C)(C)N1O | 107 | 2 | · | · | i | 0.95 | ·
N#Cc1c(-c2ccccc2)nc(SCC(=O)N(c2ccccc2)c2ccccc2)[nH]c1=O | 6 | -8 | · | · | i | 1.2 | -0.7
Cc1cc(C)c(C)c(OCCCOc2cccc3cccnc23)c1 | 100 | -2 | -19 | 143 | i | 0.94 | 0.1
COc1ccc(CCNC(=O)/C(=C/c2cccnc2)NC(=O)c2ccccc2)cc1OC | 99 | 2 | -77 | 132 | i | 1 | ·
COC(=O)C1CCN(C(=O)COC(=O)CC(NC(N)=O)c2ccc(Cl)cc2)CC1 (stereo unspecified) | 104 | -5 | · | · | i | 0.9 | 0.1
COCCn1c(C)cc(C(=O)COC(=O)C23CC4CC(CC(O)(C4)C2)C3)c1C | 100 | -7 | · | · | i | 0.83 | -1.9
CCC(=O)Oc1ccc(C(=O)Nc2cccc(C(=O)NC(C)(C)C)c2)cc1 | 93 | -15 | 5 | 139 | i | 0.87 | ·
Additional records follow.
SMILES | RGS16-Gao HTS | PKD1 kinase inh | INS promoter inh | INS promoter inh cell count | HSV replic up | HSV replic up primary fold | GALR2 agonist
Cc1[nH]c2ccccc2c1/C=C/C(=O)c1ccncc1 | 94 | · | · | · | i | 0.91 | ·
N#Cc1c(N)nc2c3c(sc(=N)c2c1N)NC(=O)CC3c1c(F)cccc1Cl (stereo unspecified) | 35 | -4 | -33 | 50 | i | 0.89 | 1.9
CS(=O)(=O)Nc1cccc(C2=NN(S(=O)(=O)c3ccccc3)C(c3ccco3)C2)c1 (stereo unspecified) | 94 | 5 | -20 | 77 | i | 1.1 | ·
CNC(=O)NNC(=O)c1nc(-c2ccccc2)c(C)o1 | 100 | · | · | · | i | 0.99 | ·
Cc1cccc(-c2nnc(SCC(=O)Nc3ncccn3)n2C)c1 | 99 | -9 | 9 | 44 | i | 1.1 | ·
COc1ccc2nc(NC(=O)C3COc4ccccc4O3)sc2c1 (stereo unspecified) | 102 | -6 | · | · | i | 0.81 | -2.8
Nc1cc(=O)[nH]c(SCC(=O)Nc2cc(Cl)cc(Cl)c2)n1 | 104 | -3 | · | · | i | 1 | -1.5
O=C(N/N=C1\SCC(=O)N1CCc1ccccc1)c1cccs1 | 111 | -1 | · | · | i | 0.87 | ·
Cc1ccc(-n2c(CNc3ccc(F)cc3)nnc2SCC(=O)NCc2ccco2)cc1 | 106 | -1 | · | · | i | 1.1 | -0.3
COCCNC(=O)/C(C#N)=C/c1c(N2CC(C)OC(C)C2)nc2ccccn2c1=O (stereo unspecified) | 92 | 3 | 8 | 87 | i | 0.95 | 1.1
O=c1[nH]nc(CNc2ccc(OC(F)(F)F)cc2)c2ccccc12 | 99 | -2 | · | · | i | 0.99 | ·
Cc1nnc(NC(=O)NCN2C(=O)C3C4C=CC(C4)C3C2=O)s1 (stereo unspecified) | 97 | -2 | · | · | i | 0.97 | 0.6
CCOC(=O)c1cn2nc(N3CCCCC3)ccc2n1 | 99 | · | · | · | i | 0.8 | ·
Clc1ccc(-c2nnc3c4ccccc4nc(N4CCOCC4)n23)cc1Cl | 101 | -14 | · | · | · | · | 0.0
COc1ccc(N(CC(=O)NCc2cccnc2)S(=O)(=O)c2c(C)nn(C)c2C)cc1 | 103 | 2 | · | · | i | 0.77 | -4.2
CN(C(=O)CSc1nc2ccccc2n1CCc1ccccc1)C1CCS(=O)(=O)C1 (stereo unspecified) | 108 | -6 | -7 | 155 | i | 1.1 | -0.3
CCOC(=O)N1CCC(N2C(=O)c3ccccc3C2Nc2ccccc2C)CC1 (stereo unspecified) | 103 | -1 | · | · | i | 1 | -1.2
COc1ccccc1NC(=O)c1cc(C(=O)Nc2ccccc2OC)cc(N2C(=O)CCC2=O)c1 | 99 | -19 | -46 | 85 | i | 0.86 | -1.5
Cc1ccccc1N(CC(=O)NCc1ccc2c(c1)OCO2)C(=O)CCC(=O)Nc1ccccn1 | 109 | 9 | · | · | i | 0.99 | -0.7
Cc1ccccc1OCCCCn1c(CO)nc2ccccc21 | 104 | -10 | -23 | 121 | · | · | ·
COc1ccccc1-c1nnc(SCC(=O)Nc2cc(C)on2)o1 | 104 | -5 | 35 | 90 | i | 0.98 | -0.9
Cn1c(=O)n(Cc2ccccc2F)c(=O)c2c1nc1n2CCCN1CCc1ccccc1 | 106 | -1 | -31 | 88 | i | 0.99 | 1.2
O=C1NC(=O)c2cc(NC(=O)C3CCCCC3)ccc21 | 102 | 1 | -29 | 134 | i | 0.75 | -2.5
Cc1nn(C)cc1/C=N/NC(=O)Cn1nnc(N)n1 | 98 | · | · | · | i | 1 | ·
CN1CCN(C(=O)CCN2C(=O)S/C(=C/c3ccc(Cl)cc3)C2=O)CC1 | 102 | 4 | · | · | i | 0.88 | ·

Look-ups from the entries so far:
CCOC(=O)N1CCC(N2Cc3cccc(C(=O)NCc4ccccn4)c3C2=O)CC1 @ PKD1 kinase inh: 10
Cn1c(=O)n(Cc2ccccc2F)c(=O)c2c1nc1n2CCCN1CCc1ccccc1 @ HSV replic up primary fold: 0.99

Later entries.
SMILES | RGS16-Gao HTS | PKD1 kinase inh | INS promoter inh | INS promoter inh cell count | HSV replic up | HSV replic up primary fold | GALR2 agonist
COC(=O)c1sccc1NC(=O)Nc1cccc(C(C)=O)c1 | 105 | -8 | · | · | i | 1.2 | ·
CCOc1ccc(NC(=O)CC)cc1 | 107 | -3 | · | · | i | 1.1 | ·
COc1ccc(C(=O)NCCn2ccc3ccccc32)cc1OC | 101 | -2 | · | · | i | 0.8 | -0.9
CC(=O)Nc1cccc(OCC(=O)/C=C2\N(C)c3ccccc3C2(C)C)c1 | 109 | -7 | -18 | 127 | i | 1 | ·
O=C1C(c2ccc(F)cc2)N(CC2COc3ccccc3O2)C(=O)CN1C1CCCCC1 (stereo unspecified) | 98 | -11 | 53 | 95 | i | 0.79 | -1.9
COc1ccc2c(c1)sc(=N)n2CC(=O)Nc1cc(C)cc(C)c1 | 112 | 13 | · | · | i | 0.92 | ·
Cc1cc(=O)nc2c3ccccc3n(C(C)C(=O)NCCC(C)C)n12 (stereo unspecified) | 94 | · | · | · | i | 0.93 | ·
Fc1ccc(NC(=S)N2CCCc3ccccc32)cc1 | 97 | -4 | 10 | 124 | i | 1 | -2.3
CCn1c2ccccc2c2cc(NC(=O)N3CCOCC3)ccc21 | 114 | -6 | -400 | 48 | i | 0.85 | -1.3
COCCn1c(SC(C)C(=O)Nc2ccc3c(c2)OCCO3)nc2ccccc2c1=O (stereo unspecified) | 100 | -8 | · | · | i | 0.94 | -1.0
Cc1ccc2c(c1)N(Cc1ccncc1)C(=O)C(C)O2 (stereo unspecified) | 62 | -3 | -26 | 123 | i | 1 | -2.4
CCCn1nnc(NC(=O)COc2ccc(Cl)cc2)n1 | 93 | -2 | 7 | 106 | i | 0.85 | 0.2
COc1ccc(-c2nnnn2C(C)C)cc1 | 102 | · | · | · | i | 1 | ·
CC(CCc1ccccc1)NC(=O)COC(=O)CC1CC2CCC1C2 (stereo unspecified) | 98 | -4 | 29 | 142 | i | 0.97 | -1.5
CCOC(=O)c1c(NC(=O)Cn2nc([N+](=O)[O-])c(Br)c2C)sc2c1CCC(C)C2 (stereo unspecified) | 104 | -2 | 42 | 75 | i | 0.87 | -2.1
COC(=O)/C(=C\c1ccc([N+](=O)[O-])o1)NC(=O)c1ccccc1 | 100 | -6 | · | · | i | 0.97 | -2.8
Cn1cc(C(=O)NCc2cccnc2)c(=O)c2cc(S(=O)(=O)N3CCCCCC3)ccc21 | 105 | -6 | · | · | i | 0.9 | ·
CCOc1ccc(/C=C/C(=O)Nc2ccc3[nH]c(=O)[nH]c3c2)cc1 | 102 | 4 | -10 | 123 | i | 0.98 | -1.9
Cn1c(SCC(=O)NCC2CCCO2)nnc1-c1cccc(NC(=O)c2ccccc2F)c1 (stereo unspecified) | 105 | -3 | · | · | i | 0.9 | ·
CCCN1C(=O)c2ccccc2NC1c1ccc(C)cc1 (stereo unspecified) | 102 | 6 | 0 | 113 | i | 0.93 | ·
O=C(CCN1C(=O)c2cccc3cccc(c23)C1=O)NCc1cccnc1 | 106 | 4 | · | · | i | 0.97 | ·
CCOC(=O)N1CCC(N(CCN(C)C)C(=S)Nc2ccc(OCC)cc2)CC1 | 108 | 0 | -9 | 101 | i | 0.86 | ·
OCCN1CCN(c2nc(N3CCCCC3)nc(N3CCCCC3)n2)CC1 | 111 | -10 | · | · | i | 0.79 | 0.5
O=C(CSc1ccc(-c2ccc(F)cc2)nn1)N1CCCCC1 | 103 | -8 | · | · | i | 0.78 | -2.7
Cc1cc(NC(=O)Cn2nc(C(F)(F)F)c3c2CCCC3)no1 | 100 | -8 | 12 | 104 | i | 0.96 | -2.6
COc1ccccc1NC(=O)C(O)C(O)C(=O)Nc1ccccc1OC (stereo unspecified) | 107 | 10 | -26 | 114 | i | 0.84 | 1.7
CCc1nn2c(NCCOC)cc(C)nc2c1-c1ccc(F)cc1 | 110 | -4 | 36 | 181 | i | 0.85 | ·

Bioassay records (PubChem)
